Screens (PubChem BioAssay)
Ecoli rRNA inh – selective bacterial rRNA inhibition in E. coli; E. coli WT GFP vs humanized-ribosome RFP mutants, fluorescence, 24 h; hits give low values; DMSO median 0, no signal -100; GFP signal change (wild-type ribosome), % (test concentration not listed); actives 1.6% (n = 350,000); AID 720706;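 active = significant combined selectivity score with lowered wild-type GFP, culture density cut under 30%, mutant RFP and density less affected; inactive = any of these conditions unmet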; also: one replicate is shown; some compounds called inactive have numbers as strong as hits
FGF22 binding – binders of recombinant human FGF22 by thermal shift. Q9HCT0. SYPRO orange fluorescence; percent of sucrose octasulfate shift, DMSO zero. calls only at 9.99 µM. actives 1.5% (n = 340,000). AID 651658;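 active = melting point raised past a set limit in the mean and every replicate; three in four hits are not shown here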
Target sequence (Q9HCT0 whole entry, looked up): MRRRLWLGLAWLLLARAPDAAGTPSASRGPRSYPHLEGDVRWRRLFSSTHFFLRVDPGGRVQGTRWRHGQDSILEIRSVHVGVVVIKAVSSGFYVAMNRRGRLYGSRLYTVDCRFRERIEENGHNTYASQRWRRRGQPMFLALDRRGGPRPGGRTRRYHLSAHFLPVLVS
AF4-AF9 inh – MLL-AF4/AF9 protein interaction inhibition. P42568. AlphaScreen, biotin-AF4 peptide binding to FLAG-AF9. inhibition, % at 10 µM. actives 0.47% (n = 350,000);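 active = every replicate reaching a set inhibition limit, whatever the replicate mean, cut at about 25% in these data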;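 also: 0% = plate neutral control median and 100% = total signal loss; the record names both 10 and 1 µM as test concentration; the first replicate is given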
Target sequence (P42568 whole entry, looked up): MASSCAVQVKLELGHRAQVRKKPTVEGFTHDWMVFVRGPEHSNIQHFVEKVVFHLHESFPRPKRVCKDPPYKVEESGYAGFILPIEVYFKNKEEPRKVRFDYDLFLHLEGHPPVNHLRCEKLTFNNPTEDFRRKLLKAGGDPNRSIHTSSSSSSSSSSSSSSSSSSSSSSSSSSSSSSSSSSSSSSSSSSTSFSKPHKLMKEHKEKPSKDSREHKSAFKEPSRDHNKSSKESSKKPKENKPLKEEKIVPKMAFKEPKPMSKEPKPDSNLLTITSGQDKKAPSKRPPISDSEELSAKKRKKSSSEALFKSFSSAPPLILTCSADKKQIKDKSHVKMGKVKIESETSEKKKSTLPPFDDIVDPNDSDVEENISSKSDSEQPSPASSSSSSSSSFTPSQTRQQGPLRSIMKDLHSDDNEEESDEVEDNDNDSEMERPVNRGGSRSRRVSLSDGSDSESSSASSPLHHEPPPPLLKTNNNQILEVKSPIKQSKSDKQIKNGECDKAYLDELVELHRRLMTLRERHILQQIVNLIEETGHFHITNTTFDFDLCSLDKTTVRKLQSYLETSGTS
Ecoli rRNA inh OD600 – recorded beside Ecoli rRNA inh, whose call it bears; OD600 change, %; measured here: OD600 growth;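 optical density of the mix in the first replicate; 0 = DMSO median and -100 = no signal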
Ecoli rRNA inh RFP – further read-out of Ecoli rRNA inh, marked with its call; RFP signal change, %; measured here: RFP humanized mutant strains;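 first replicate; 0 = DMSO median and -100 = no signal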
* hit, by the source's call; i = inactive; nt = not tested or not shown; & = joins results of further samples. The list is partial; rates above refer to the full screens.

The line under a structure holds: Ecoli rRNA inh	Ecoli rRNA inh OD600	Ecoli rRNA inh RFP	FGF22 binding	AF4-AF9 inh
[1] C[C@H]1CN([C@@H](C)CO)C(=O)c2cc(/C=C/c3ccccc3)cnc2O[C@H]1CN(C)C(=O)c1ccc2c(c1)OCO2
  -9	-6	9.6	i	10
[2] O=C(NC1CCCCC1)[C@H]1[C@H](CO)[C@H]2Cn3c(cccc3=O)[C@H]2N1CC1CCCCC1
  1	-6	0.7	i	2.0
[3] COc1ccc(S(=O)(=O)N(C)C[C@H]2Oc3ccc(NS(=O)(=O)c4ccc(F)cc4)cc3CC(=O)N([C@H](C)CO)C[C@@H]2C)cc1
  -3	-11	3.6	i	-1.5
[4] O=C(c1cccnc1)N1CC(=O)N2[C@@H](CO)[C@@H](c3ccc(C#CCC4CCCC4)cc3)[C@@H]2C1
  3	-6	3.0	i	-3.2
[5] CCc1nc2ccc(C(=O)Nc3ccc4c(c3)OCC(=O)N4)cn2c1N(C)C(=O)C1CCCCC1
  -5	-7	2.3	i	4.0
[6] COc1ccc(CN(C)C[C@@H]2Oc3ccc(NC(=O)CCC(F)(F)F)cc3C(=O)N([C@H](C)CO)C[C@H]2C)cc1
  4	0	-0.3	i	-0.9
[7] COc1ccc(NC(=O)N(C)C[C@H]2Oc3ccc(NC(=O)CCCN(C)C)cc3C(=O)N([C@@H](C)CO)C[C@@H]2C)cc1
  5	13	-0.5	i	1.5
[8] Cc1cccc(S(=O)(=O)N2C[C@@H](O)COC[C@H]3O[C@@H](CC(=O)NCCCN4CCOCC4)CC[C@@H]32)c1
  0	-4	-1.4	i	0.7
[9] N#C[C@@H]1[C@@H](c2ccc(C3=CCCC3)cc2)[C@H](CO)N1C(=O)c1cccc(F)c1
  2	-1	0.5	i	3.1
[10] CC(C)NC(=O)N1C[C@@H]2[C@H](c3ccccc31)[C@H](CO)N2C(=O)Nc1ccc(F)cc1
  -2	-5	-1.5	i	-1.8
[11] C/C=C/c1ccc2c(c1)O[C@@H](CN(C)C(=O)Cc1cccnc1)[C@H](C)CN([C@H](C)CO)S2(=O)=O
  1	-1	-2.6	i	0.1
[12] C[C@@H]1CCCCO[C@@H](CN(C)Cc2ccccc2)[C@H](C)CN([C@@H](C)CO)C(=O)c2cc(NC(=O)c3ccncc3)ccc2O1
  0	6	-2.7	i	-1.2
[13] Cn1cnc(CCNC(=O)C[C@H]2CC[C@@H]3[C@H](COC[C@H](O)CN3C(=O)Nc3ccccc3)O2)c1
  3	18	-5.8	i	1.2
[14] COc1cccc(C#Cc2ccc([C@@H]3[C@H](C#N)N(C(=O)C4CCC4)[C@H]3CO)cc2)c1
  2	0	1.1	i	-0.6
[15] C[C@H](CO)N1C[C@H](C)[C@@H](CN(C)S(=O)(=O)c2ccccc2C#N)OCc2cn(nn2)CCCC1=O
  12&0	7&2	0.4&1.0	i	-0.1&-2.1
[16] C[C@@H]1CN([C@H](C)CO)C(=O)c2cc(NC(=O)c3ccncc3)ccc2O[C@@H](C)CCCCO[C@H]1CN(C)S(=O)(=O)c1cn(C)cn1
  -1	-8	-1.5	i	0.0
[17] CN1C(=O)c2cc(NC(=O)c3ccc(F)c(F)c3)ccc2OC[C@@H]2O[C@H](CC(=O)N[C@H]3CCN(Cc4ccccc4)C3)CC[C@H]21
  1	-6	-1.5	i	5.7
[18] CN(C)CC(=O)Nc1ccc2c(c1)[C@@H]1C[C@H](CC(=O)NCc3ccc(Cl)cc3)O[C@@H](CO)[C@@H]1O2
  -1	-2	1.5	i	0.6
[19] C[C@H]1CN([C@@H](C)CO)C(=O)Cc2cc(NS(=O)(=O)c3ccc(Cl)cc3)ccc2O[C@@H]1CN(C)Cc1ccc(C(=O)O)cc1
  5	1	-1.5	i	-1.2
[20] COc1cccc(S(=O)(=O)N(C)C[C@@H]2Oc3ncc(-c4cccc(C(=O)N(C)C)c4)cc3C(=O)N([C@@H](C)CO)C[C@@H]2C)c1
  2	-4	-0.8	i	-4.2
[21] COc1ccc(CCC(=O)N2c3ccccc3N=C(c3ccc(C(F)(F)F)cc3)C2C(=O)NC(C)(C)C)cc1 (centres undefined)
  8	9	-5.0	i	0.3
[22] Cc1noc(C)c1S(=O)(=O)Nc1ccc2c(c1)CC(=O)N([C@H](C)CO)C[C@@H](C)[C@@H](CN(C)Cc1ccc3c(c1)OCO3)O2
  -3	-6	3.8	i	-22
[23] CCC(=O)N(C)C[C@H]1Oc2cc(C#CCC3CCCC3)ccc2S(=O)(=O)N([C@@H](C)CO)C[C@@H]1C
  -22	-50	26	i	5.0
[24] C[C@H]1CN([C@@H](C)CO)C(=O)c2cc(-c3cccc(F)c3)cnc2O[C@@H]1CN(C)C(=O)C1CCCCC1
  -7	-11	-0.2	i	-1.6
[25] C[C@@H]1CN([C@@H](C)CO)S(=O)(=O)c2ccc(-c3ccncc3)cc2O[C@H]1CN(C)C(=O)Nc1ccc(F)cc1
  0	-10	-3.4	i	-1.7
[26] Cc1noc(C)c1S(=O)(=O)Nc1ccc2c(c1)C(=O)N([C@H](C)CO)C[C@H](C)[C@H](CN(C)Cc1ccc(C(=O)Nc3ccccc3N)cc1)O2
  -1	-7	0.6	i	-0.5
[27] COc1ccc(S(=O)(=O)N(C)C[C@H]2Oc3ccc(NS(=O)(=O)c4cn(C)cn4)cc3CC(=O)N([C@@H](C)CO)C[C@H]2C)cc1
  4	16	-1.7	i	-4.4
[28] C[C@@H](O)C#Cc1cnc2c(c1)C(=O)N([C@@H](C)CO)C[C@H](C)[C@H](CN(C)C(=O)c1ccccc1F)O2
  10	15	-1.1	i	-1.3
[29] C[C@H](CO)N1C[C@H](C)[C@H](CN(C)C(=O)Cc2ccccc2)Oc2cc(-c3ccccc3)ccc2S1(=O)=O
  -10	-24	7.9	i	2.5
[30] O=C(CN1CCOCC1)NCC[C@@H]1CC[C@@H](NC(=O)c2ccccc2F)[C@H](CO)O1
  8	1	-1.5	i	-4.0
[31] O=C(C[C@@H]1C=C[C@@H](NC(=O)C2CCC2)[C@@H](CO)O1)NC1CCC1
  2	-1	-1.3	i	-3.1
[32] COc1ccc2c3c([nH]c2c1)[C@@H](CO)N(C(=O)c1ccccc1)CC31CN(Cc2cccnc2)C1
  -1	8	-1.5	i	-1.7
[33] CN(C)C(=O)C[C@@H]1CC[C@@H](NC(=O)NC2CCCC2)[C@@H](CO)O1
  -2	3	-0.7	i	-1.5
[34] C[C@@H]1CN([C@@H](C)CO)C(=O)c2cc(C#Cc3ccc(F)cc3)cnc2O[C@H]1CN(C)Cc1ccccn1
  1	4	6.2	i	6.2
[35] CN1C(=O)c2cc(NC(=O)C3CCOCC3)ccc2OC[C@@H]2O[C@H](CC(=O)NCCc3ccncc3)CC[C@H]21
  1	-8	2.4	i	-0.5
[36] CC(=O)N[C@@H]1CC[C@@H](CC(=O)NCC2CCCCC2)O[C@@H]1CO
  0	1	1.5	i	-1.8
[37] C[C@H](CO)N1C[C@H](C)[C@@H](CN(C)C(=O)C2CCC2)Oc2cc(C#CCN(C)C)ccc2S1(=O)=O
  4	2	-1.9	i	1.7
[38] COCC(=O)N1C[C@@H]2[C@H](c3ccccc31)[C@@H](CO)N2Cc1ccccc1Cl
  -1	0	-2.7	i	-0.1
[39] C[C@H](CO)N1C[C@H](C)[C@@H](CN(C)C(=O)Nc2ccc(C(F)(F)F)cc2)OCCCC[C@H](C)Oc2ccc(NC(=O)Nc3cccc4ccccc34)cc2C1=O
  0	3	-1.8	i	-2.8
[40] CC(=O)Nc1ccc2c(c1)C(=O)N(C)[C@H]1CC[C@@H](CC(=O)NCc3ccc(Cl)cc3)O[C@H]1CO2
  4	0	1.0	i	-0.6
[41] C[C@H](CO)N1C[C@H](C)[C@@H](CN(C)C(=O)Nc2ccc3c(c2)OCO3)OCCCC[C@H](C)Oc2ccc(NS(=O)(=O)c3ccc(Cl)cc3)cc2C1=O
  -2	8	2.2	i	-9.4
[42] Cc1ccc(-c2ccc3c(c2)O[C@H](CN(C)S(C)(=O)=O)[C@H](C)CN([C@H](C)CO)S3(=O)=O)cc1
  -4	-14	5.0	i	-0.3
[43] CC(=O)N1CCc2c(sc(NC(=O)c3ccc([N+](=O)[O-])o3)c2C(N)=O)C1
  -8	-1	-1.8	i	2.6
[44] C[C@@H]1CN([C@@H](C)CO)C(=O)c2cc(NC(=O)Cc3ccccc3)ccc2O[C@H]1CN(C)Cc1ccc(Oc2ccccc2)cc1
  1	-6	16	i	0.9
[45] CCC(=O)N[C@H]1CC[C@@H](CCn2cc(CN(C)C)nn2)O[C@H]1CO
  2	6	-1.8	i	-3.8
[46] Cc1noc(C)c1NC(=O)N[C@@H]1C=C[C@H](CC(=O)NCc2ccc(Cl)c(Cl)c2)O[C@@H]1CO
  -2	0	0.7	i	-2.8
[47] N#C[C@@H]1[C@@H](c2ccccc2-c2cccc(F)c2)[C@H](CO)N1C(=O)C1CCC1
  -6	-3	-0.7	i	-2.8
[48] O=[N+]([O-])c1ccccc1NS(=O)(=O)c1ccccc1
  35	-3	56	i	0.6
[49] C[C@@H]1CN([C@@H](C)CO)C(=O)c2cccc(NC(=O)C3CC3)c2O[C@@H]1CN(C)Cc1ccc(Oc2ccccc2)cc1
  -1	-7	0.1	i	-0.5
[50] Cc1noc(C)c1NC(=O)N(C)C[C@H]1Oc2c(NC(=O)c3ccc(-c4nccs4)cc3)cccc2C(=O)N([C@@H](C)CO)C[C@@H]1C
  1	5	0.7	i	-3.9
[51] COc1ccc(C(=O)N2C[C@H]3[C@@H](c4ccccc42)[C@H](CO)N3Cc2ccccc2)cc1
  1	-14	0.4	i	0.7
[52] C[C@@H]1CCCCO[C@@H](CN(C)C(=O)NC2CCCCC2)[C@@H](C)CN([C@@H](C)CO)C(=O)c2cc(NS(=O)(=O)c3cn(C)cn3)ccc2O1
  -3	-4	-4.9	i	-2.5
[53] CCC(=O)Nc1ccc2c(c1)C(=O)N(C)[C@@H]1CC[C@H](CC(=O)N3CCCCC3)O[C@@H]1CO2
  0	0	-3.5	i	-0.3
[54] CC(C)NC(=O)N(C)C[C@@H]1Oc2ccc(NS(=O)(=O)c3ccc(F)cc3)cc2CC(=O)N([C@@H](C)CO)C[C@@H]1C
  4	0	-1.9	i	0.3
[55] CO[C@@H]1CN(C)C(=O)c2ccc(NC(=O)C3CCOCC3)cc2OC[C@@H](C)N(C(C)=O)C[C@H]1C
  2	-5	-0.4	i	-0.3
[56] CCCN1C[C@@H](C)[C@@H](OC)CN(C)C(=O)c2ccc(NC(=O)C3CCC3)cc2OC[C@H]1C
  2	3	-1.3	i	-2.8
[57] CN(C)C(=O)c1ccc(-c2ccccc2[C@H]2[C@@H](C#N)N(C(=O)C3CCC3)[C@@H]2CO)cc1
  -1	9	1.2	i	-1.1
[58] CC(=O)Nc1ccc2c(c1)C(=O)N(C)[C@@H]1CC[C@H](CC(=O)NCC3CC3)O[C@H]1CO2
  3	1	-0.4	i	-4.2
[59] C[C@H](CO)N1C[C@H](C)[C@H](CN(C)C(=O)c2ccccc2)Oc2ncc(C#CC3CC3)cc2C1=O
  1	-4	0.8	i	1.3
[60] COCc1[nH]nc2c1C(c1ccc(F)cc1)N(Cc1ccccc1)C2=O (centres undefined)
  -7	-2	-0.4	nt	-9.7

7 structures from above, ordered by number of heavy atoms, falling.
The line under a structure holds: Ecoli rRNA inh	Ecoli rRNA inh OD600	Ecoli rRNA inh RFP	FGF22 binding	AF4-AF9 inh
[44] C[C@@H]1CN([C@@H](C)CO)C(=O)c2cc(NC(=O)Cc3ccccc3)ccc2O[C@H]1CN(C)Cc1ccc(Oc2ccccc2)cc1
  1	-6	16	i	0.9
[37] C[C@H](CO)N1C[C@H](C)[C@@H](CN(C)C(=O)C2CCC2)Oc2cc(C#CCN(C)C)ccc2S1(=O)=O
  4	2	-1.9	i	1.7
[42] Cc1ccc(-c2ccc3c(c2)O[C@H](CN(C)S(C)(=O)=O)[C@H](C)CN([C@H](C)CO)S3(=O)=O)cc1
  -4	-14	5.0	i	-0.3
[46] Cc1noc(C)c1NC(=O)N[C@@H]1C=C[C@H](CC(=O)NCc2ccc(Cl)c(Cl)c2)O[C@@H]1CO
  -2	0	0.7	i	-2.8
[47] N#C[C@@H]1[C@@H](c2ccccc2-c2cccc(F)c2)[C@H](CO)N1C(=O)C1CCC1
  -6	-3	-0.7	i	-2.8
[43] CC(=O)N1CCc2c(sc(NC(=O)c3ccc([N+](=O)[O-])o3)c2C(N)=O)C1
  -8	-1	-1.8	i	2.6
[45] CCC(=O)N[C@H]1CC[C@@H](CCn2cc(CN(C)C)nn2)O[C@H]1CO
  2	6	-1.8	i	-3.8

Other records follow:
The line under a structure holds: Ecoli rRNA inh	Ecoli rRNA inh OD600	Ecoli rRNA inh RFP	FGF22 binding	AF4-AF9 inh
[61] COc1ccc(-c2ccc3c(c2)O[C@@H](CN(C)C(=O)c2ccccc2F)[C@H](C)CN([C@@H](C)CO)S3(=O)=O)cc1
  -1	-5	3.3	i	1.1
[62] CCNC(=O)[C@H]1[C@H](CO)[C@H]2Cn3c(cccc3=O)[C@@H]1N2CCC(F)(F)F
  3	7	-5.2	i	-2.0
[63] C[C@H](CO)N1C[C@H](C)[C@H](CN(C)Cc2ccc(C(F)(F)F)cc2)Oc2c(NC(=O)Nc3ccc(C(F)(F)F)cc3)cccc2C1=O
  1	5	0.3	i	0.8
[64] OC[C@@H]1[C@H](c2ccccc2)C2(CN(Cc3cccnc3)C2)N1Cc1ccncc1
  3	6	-1.2	i	3.6
